High-throughput results from PubChem BioAssay.
TRPML1 agonist: activates the human TRPML1 channel; Q9GZU1; TRPML1-expressing cells, Ca2+ dye fluorescence, FDSS; host cell line not named in the record; reference of the full effect not given here; activation, % (test concentration not listed); actives 0.12% (n = 410,000); in the data active = activation above about 50%; inconclusive = about 30% to 50%; inactive = below about 30%; also: 0% is about no effect; the text of the record puts the active cut at 80%
Target sequence (Q9GZU1 whole entry, looked up): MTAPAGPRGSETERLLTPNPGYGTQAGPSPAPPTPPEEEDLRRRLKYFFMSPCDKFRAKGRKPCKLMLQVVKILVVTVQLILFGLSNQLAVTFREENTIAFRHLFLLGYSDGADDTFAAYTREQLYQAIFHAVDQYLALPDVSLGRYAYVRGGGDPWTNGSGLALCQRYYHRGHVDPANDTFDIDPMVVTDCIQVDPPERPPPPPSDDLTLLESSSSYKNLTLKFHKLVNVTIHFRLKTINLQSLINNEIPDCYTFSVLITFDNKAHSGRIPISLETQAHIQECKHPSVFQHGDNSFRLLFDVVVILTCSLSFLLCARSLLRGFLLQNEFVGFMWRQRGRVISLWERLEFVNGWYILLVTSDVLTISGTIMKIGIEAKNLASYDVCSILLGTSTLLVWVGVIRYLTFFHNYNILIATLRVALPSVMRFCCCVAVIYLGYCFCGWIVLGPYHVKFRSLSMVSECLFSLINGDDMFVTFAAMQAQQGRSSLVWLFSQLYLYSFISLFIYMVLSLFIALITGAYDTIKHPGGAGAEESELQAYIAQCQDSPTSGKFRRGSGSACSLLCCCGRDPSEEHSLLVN
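Calcium fluorescence on an FDSS kinetic reader gave the read-out. Tet-induced TRPML1-DL cells were plated overnight, dye-loaded (Ca8 with quencher, 45-90 min, room temperature, dark), then read 110 s after compound addition, and again 110 s after 4uM final 54-4 (EC80).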
Six1-Eya2 inh: Six1/Eya2 interaction inhibition; Q15475+O00167; AlphaScreen GST-Six1/His-Eya2 binding, biochemical; active compounds read low; control for the full effect not named in the record; activity change, % (concentration not given with the values); actives 0.56% (n = 360,000); in the data active = activity change below about -65%; inconclusive = about -30% to -65%; inactive = above about -30%; also: % is scaled to controls: 0 for no effect and ±100 for the full control effect
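Homogeneous AlphaScreen proximity assay pairing GST-Six1 with His-tagged Eya2 (added as 5X mix: 250 nM and 500 nM) in 50 mM Tris pH 8.0, 300 mM NaCl, 1 mM TCEP. Glutathione donor and nickel acceptor beads; 1 h, 37 °C, dark.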
D2 agonist: activates the human D2 dopamine receptor; P14416; DiscoveRx PathHunter D2 beta-arrestin, luminescence, 90 min; 100% = 57 uM dopamine signal; activation, % (no concentration beside the values); actives 0.084% (n = 360,000); AID 624465; in the data active = activation above about 40%; inconclusive = about 15% to 40%; inactive = below about 15%; also: compound concentration not given in the record; the text of the record calls up to 30% inactive
Target sequence (P14416 whole entry, looked up): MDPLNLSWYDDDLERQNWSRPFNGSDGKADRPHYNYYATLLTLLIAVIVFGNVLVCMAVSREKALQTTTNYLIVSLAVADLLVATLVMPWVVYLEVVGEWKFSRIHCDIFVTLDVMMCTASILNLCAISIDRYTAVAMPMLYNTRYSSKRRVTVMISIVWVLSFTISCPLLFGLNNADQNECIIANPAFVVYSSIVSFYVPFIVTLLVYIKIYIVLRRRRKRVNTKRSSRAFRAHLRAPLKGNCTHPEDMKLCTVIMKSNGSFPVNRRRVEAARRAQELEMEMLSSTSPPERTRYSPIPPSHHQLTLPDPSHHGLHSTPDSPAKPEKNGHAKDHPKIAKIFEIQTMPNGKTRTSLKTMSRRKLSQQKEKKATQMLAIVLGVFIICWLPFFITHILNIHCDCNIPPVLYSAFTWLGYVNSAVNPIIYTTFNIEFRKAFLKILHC
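DiscoveRx PathHunter D2 beta-arrestin cells (2,100/well) attached overnight, then compound-stimulated 90 min at 37 C in HBSS/10 mM HEPES/0.1% Tween-20 buffer; beta-galactosidase complementation read by luminescence after 1 h at ambient temperature. Dopamine 57 uM final (EC100) as control.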
D2 potentiator: positive allosteric modulators of human D2 dopamine receptor; AID 624464; DiscoveRx D2 beta-arrestin cells, luminescence, 90 min; 100% = 57 uM dopamine signal; potentiation, % (test concentration not listed); P14416; actives 0.23% (n = 360,000); active = potentiation of 50% or more; inconclusive = 30% to 50%; inactive = 30% or less;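 also: compound concentration not given in the record; tested on top of an EC20 dose of dopamine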
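PathHunter D2 cells, attached overnight at 37 deg C, received compound in DMSO plus dopamine at EC20 (50 nM final) for 90 min at 37 deg C. Beta-arrestin recruitment was read as luminescence after 1 h with detection reagent at ambient temperature.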
CtBP-E1A inh: blocks the CtBP interaction with E1A; actives 0.49% (n = 340,000); activity change, % (no concentration beside the values); AlphaScreen GST-E1A/His-CtBP binding, 1536-well; active compounds read low; control for the full effect not named in the record; in the data active means activity change below about -65%; inconclusive means about -30% to -65%; inactive means above about -30%; also: % is scaled to controls: 0 for no effect and ±100 for the full control effect
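Protein mix (5X: 125 nM each GST-E1A, His-CtBP) was incubated with pinned compound 2 h at 37 deg C in dark, in 50 mM Tris pH 8.0 buffer with 300 mM NaCl. Glutathione donor and nickel acceptor beads followed; AlphaScreen signal read after 1 h.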
PINK1 expr mod: modulators of PINK1 expression | Potency, µM (series often up to 76.6 µM), without a hit: top-dose activation (PINK1 increase), actives largely listed as activators | PINK1 immunofluorescence, high-content cytometry, 24 h | AID 624263 | actives 0.2% (n = 410,000); active = well fitted activation curve with a large enough effect; inconclusive = small, poorly fitted or top-dose-only effect; inactive = flat fitted curve, though single readings scatter; cell line not stated here;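 also: potency is read from the fitted curve at half-maximal effect; % of control where 0% means no effect; nearly all actives have a fitted effect of over 65% in size; a mitochondrial uncoupler was the plate control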
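PINK1 protein, normally rapidly degraded, was detected by immunofluorescence after 24 hour compound treatment of a stable cell line. Titration data (5 concentrations) came from laser-scanning cytometry, with CCCP-treated wells as controls.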
Active calls of the source: *; ? = inconclusive; . = not tested or not shown; [ ] = remark or other dose.

SMILES	TRPML1 agonist	Six1-Eya2 inh	D2 agonist	D2 potentiator	CtBP-E1A inh	PINK1 expr mod
Cn1c(NCC(O)c2ccccc2)nc2c1c(=O)n(Cc1ccc(Cl)cc1)c(=O)n2C (stereo unspecified)	0.7	?	-1.9	-2	?	-3.3%
CCCCCCCC(=O)NNC(=O)CCC(=O)O	-0.1	7	4.9	-8	-1	0.3%
CCC(NS(=O)(=O)c1cn(C)nc1C)c1ccccc1 (stereo unspecified)	0.3	1	-20	1	-3	5.1%
O=C(COC(=O)c1ccc[nH]c1=O)NC1CC1	-1.1	5	-2.1	1	.	0.9%
Cc1ccc(N(CC(=O)O)S(C)(=O)=O)cc1Cl	-0.1	5	1.2	9	-3	0.8%
CC1=C(C(=O)N(C(C)C)C(C)C)CC(CC(=O)NCc2cccc3ccccc23)C(=O)N1Cc1ccc(F)cc1 (stereo unspecified)	-0.3	6	-2.5	-10	16	-0.2%
COc1ccc(/C(N)=N/OC(=O)Cc2ccccc2[N+](=O)[O-])cc1	0.3	0	1.0	11	8	2.9%
CC(C)C(NS(=O)(=O)c1ccc2c(c1)Cc1cc(S(=O)(=O)NC(C(=O)O)C(C)C)ccc1-2)C(=O)O (stereo unspecified)	0.3	-14	-5.0	-10	-21	-1.4%
CCC(c1nnnn1C1CCCC1)N1CCN(Cc2ccccc2)CC1 (stereo unspecified)	0.3	1	-4.2	-35	-7	0.7%
CCN(CC)CC#CC(C)(C)OC(C)=O	-0.5	1	-1.4	-10	14	-1.7%[38.3 µM]
CN(C)c1ccc(-c2ccnc3c2CC(C)(C(=O)Nc2cccc(OC(F)(F)F)c2)O3)cc1 (stereo unspecified)	-0.9	-24	-4.7	-3	-30	1.7%
CCC(=O)N1CCC1(C)C(=O)Nc1ccc(Cl)c(Cl)c1 (stereo unspecified)	-0.2	6	-2.4	-8	-3	1.0%
COC(=O)C1=C(C)NC(=O)CC1c1ccc(C(=O)OC)cc1 (stereo unspecified)	0.4	2	-1.3	-3	8	1.3%
COc1ccc(-n2c(-c3cccc(OC)c3)nc(=S)c3c2CCCC3)cc1	0.5	-3	-4.0	-28	-4	-6.9%[38.3 µM]
O=C(NCc1cccs1)c1ccc(CS(=O)Cc2ccc(Cl)cc2)o1 (stereo unspecified)	-0.6	3	0.2	-8	6	0.2%

Whole records, quoted from the list. Screens in order: TRPML1 agonist	Six1-Eya2 inh	D2 agonist	D2 potentiator	CtBP-E1A inh	PINK1 expr mod
`CC1=C(C(=O)N(C(C)C)C(C)C)CC(CC(=O)NCc2cccc3ccccc23)C(=O)N1Cc1ccc(F)cc1` (stereo unspecified) is listed as -0.3	6	-2.5	-10	16	-0.2%
`CN(C)c1ccc(-c2ccnc3c2CC(C)(C(=O)Nc2cccc(OC(F)(F)F)c2)O3)cc1` (stereo unspecified) is listed as -0.9	-24	-4.7	-3	-30	1.7%
`CCN(CC)CC#CC(C)(C)OC(C)=O` is listed as -0.5	1	-1.4	-10	14	-1.7%[38.3 µM]
`CCCCCCCC(=O)NNC(=O)CCC(=O)O` is listed as -0.1	7	4.9	-8	-1	0.3%
`O=C(NCc1cccs1)c1ccc(CS(=O)Cc2ccc(Cl)cc2)o1` (stereo unspecified) is listed as -0.6	3	0.2	-8	6	0.2%

New compounds follow
SMILES	TRPML1 agonist	Six1-Eya2 inh	D2 agonist	D2 potentiator	CtBP-E1A inh	PINK1 expr mod
CCN(c1cccc(C)c1)S(=O)(=O)c1nnc(NC(=O)c2ccco2)s1	-0.9	2	6.1	-25	-18	1.1%
CC(=O)Nc1ccc(S(=O)(=O)N2CC3(C)CC2CC(C)(C)C3)cc1 (stereo unspecified)	-0.6	-1	3.1	-3	6	6.0%
N#Cc1ccc(OS(=O)(=O)c2ccc(-c3ccon3)s2)cc1	0.0	-1	2.3	0	3	-0.2%
Cc1ccc(OCC(=O)N/N=C/c2ccc3c(c2)OCO3)cc1C	3.7	11	5.3	-3	.	-0.5%
CCn1c(=O)cc(SCC(=O)NCCN2CCN(Cc3ccccc3)CC2)c2ccccc21	0.7	-8	4.3	-16	-12	?
COC(=O)c1cn(C(=O)c2ccc(OC)cc2)c2ccccc12	2.5	17	2.7	-4	10	1.8%
C=CCOC(=O)C(C(=O)Cc1ccccc1)c1ccccc1 (stereo unspecified)	0.0	17	1.0	-6	38	-0.7%
CC1CC(=O)N(CC(=O)Nc2cccc(Cl)c2)c2ccccc2S1(=O)=O (stereo unspecified)	0.2	5	-5.1	5	-1	1.8%
CC(C)Cc1ccc(C(=O)NCc2ccc3c(c2)OCO3)o1	2.3	7	-4.4	-4	-18	1.9%
Cc1ccccc1-c1ccc2c(c1)O[C@H](CN(C)C(=O)C1CC1)[C@@H](C)CN([C@@H](C)CO)S2(=O)=O	1.5	16	-3.6	2	-25	2.8%
CC1(c2nnc(Cc3ccccc3)o2)CC(c2cccnc2)=NO1 (stereo unspecified)	0.5	0	2.3	3	.	0.4%
Cc1noc(C)c1C(=O)OC(C)C(=O)N(C)c1ccccc1 (stereo unspecified)	2.0	5	13	0	5	1.5%
CCc1nn(CC(=O)O)c(=O)c2ccccc12	-0.3	0	0.5	-5	7	?
Cc1cc(C)cc(NC(=O)CSc2nnc(C3CC3)n2CC2CCCO2)c1 (stereo unspecified)	-1.5	3	-5.5	-7	17	1.7%
COc1ccc(Cl)cc1NC(=O)CSc1nnc(-c2ccncc2)n1CC1CCCO1 (stereo unspecified)	-0.5	-1	-1.9	-26	3	0.0%
CC(C)CC1NC(=O)c2cccnc2-n2c1nc1cc(F)ccc1c2=O (stereo unspecified)	-0.7	-5	-11	1	-1	-0.2%
O=C(CSc1ccccc1)NCCCc1ccccc1	-0.8	10	0.3	-2	5	1.3%
COc1ccc(N(CN2C(=O)C3CCCCC3C2=O)C(=O)c2ccco2)cc1 (stereo unspecified)	-0.6	3	-5.1	-2	-1	-3.6%
COc1ccc(-n2nc(C(=O)NCC(=O)N3CCN(c4ccccn4)CC3)c3ccccc3c2=O)c(OC)c1	1.3	-6	-8.8	-1	3	1.6%
CNC(=O)c1[nH]cnc1C(=O)N[C@@H](C)C(=O)OC(C)(C)C	-1.3	1	-2.2	-7	0	-1.0%
CC(=O)c1ccc(OCC(=O)N(CCC2=CCCCC2)c2c(N)n(Cc3ccccc3)c(=O)[nH]c2=O)cc1	-0.3	-7	-2.7	-13	7	0.0%
CCNc1ccc(C(=O)OCC(=O)Nc2cc(C)on2)cc1[N+](=O)[O-]	-0.4	-4	2.4	-3	.	10.0%
CCOC(=O)NC(=O)COC(=O)CNC(=O)c1cccc(OC)c1	0.6	-12	-2.8	-3	16	3.2%
NC(=O)c1ccc(NC(=O)COC(=O)c2ccc([N+](=O)[O-])cc2)cc1	0.0	0	1.3	-6	-8	-0.2%
c1nc(COc2nsnc2N2CCOCC2)cs1	-0.9	2	-4.5	-5	-1	1.2%
CCCCNC(=O)c1sc(=S)n(-c2ccccc2OC)c1N	-0.7	-10	0.8	-6	-9	-1.7%
COc1ccc(CNC(=O)c2cc(C3CC3)nc3c2cnn3C(C)C)cc1	2.5	0	-0.5	-2	6	1.5%
O=C(Nc1cc(Cl)ccc1N1CCOCC1)c1ccco1	-0.3	10	-2.2	-4	1	-0.5%
CC1C(c2ccccc2)N(C)C(c2ccccc2)CC1(O)c1ccccc1 (stereo unspecified)	-0.1	-2	-3.2	-28	3	9.6%[38.3 µM]
Cn1c(=O)oc2cc(S(=O)(=O)N3CCC(C(=O)Nc4ccc(OC(F)(F)F)cc4)CC3)ccc21	-0.5	1	3.8	2	0	3.5%[38.3 µM]
C[C@H](CO)N1C[C@H](C)[C@@H](CN(C)C(=O)NC2CCCCC2)Oc2c(NS(=O)(=O)c3cn(C)cn3)cccc2C1=O	-0.3	6	-0.6	1	5	1.4%
Cc1noc(C)c1C(=O)OCC(=O)/C=C1\N(C)c2ccccc2C1(C)C	0.0	5	0.2	-16	-4	.
CC1=C(C(=O)N(C(C)C)C(C)C)CC(CC(=O)NCc2ccco2)C(=O)N1CCC1=CCCCC1 (stereo unspecified)	-0.6	-4	5.2	0	2	-0.4%
CN(Cc1ccccc1)C(=O)CSc1cc(=O)n(C)c2ccccc12	-0.7	2	0.6	0	-5	2.8%
O=C(c1cc2c(=O)oc3ccccc3c2s1)N1CCOCC1	0.4	7	0.5	-1	1	0.5%
CC(C)N1CCCC(C)(C(=O)Nc2nc3ccccc3[nH]2)C1 (stereo unspecified)	-0.5	-5	-3.9	-8	0	1.3%
CCCCn1nnnc1NCc1ccc(N2CCCC2)cc1	0.2	-9	-0.3	0	-23	1.3%
COc1ccc(C(=O)NCc2cccnc2)cc1OC	-0.5	4	-1.0	-13	7	1.0%[38.3 µM]
CC(=O)c1cccc(NC(=O)COC(=O)Cc2ccc(Cl)cc2)c1	0.2	4	-4.2	-11	3	-1.3%
COc1cc(OC)c(C(=O)OC(C)C(=O)Nc2cc(C(F)(F)F)ccc2Cl)cc1OC (stereo unspecified)	0.2	-14	-3.9	-11	6	-0.7%
O=C(COc1ccc(S(=O)(=O)NCc2ccccc2)cc1Cl)NCc1ccncc1	-0.6	-1	-1.4	-10	3	0.6%
COc1ccc(OC(=O)COc2cccc(C)c2)cc1	-0.2	6	-8.1	-4	0	-1.3%
CCOc1ccc(CN2CCCN(C)CC2)cc1	0.5	3	-0.7	-7	1	0.4%[38.3 µM]
COc1ccccc1CNC(=O)CSc1nc2nc(C)cc(C)n2n1	0.1	0	-3.7	-3	37	-0.7%[38.3 µM]
COc1ccc(-c2onc(C)c2-c2ccc3c(c2)OCCO3)c(O)c1	0.4	12	-1.3	0	0	-0.5%
Cc1ccc(CN2CC(C(=O)N3CCN(S(=O)(=O)c4cccc(F)c4)CC3)CC2=O)cc1 (stereo unspecified)	-0.3	9	-3.3	-13	-2	-0.6%
COc1ccccc1NC(=O)c1sc2ncn(Cc3cccc(C)c3)c(=O)c2c1C	-0.3	4	-4.4	-4	3	15%[38.3 µM]
COC(=O)c1[nH]c2ccccc2c1NC(=O)CN1CC(C)OC(C)C1 (stereo unspecified)	0.4	-2	-4.5	-28	-1	0.7%
CCSc1nnc(-c2ccc(Cl)cc2Cl)o1	2.5	24	-2.2	-7	31	2.8%[38.3 µM]
O=C(c1ccsc1)N1CCCC(N2CCN(c3cccc(Cl)c3)CC2)C1 (stereo unspecified)	0.2	-7	-0.8	-26	-2	1.4%
CC1CCCN(C(=S)NCc2ccccc2)C1 (stereo unspecified)	-0.3	0	-2.1	15	9	7.1%
COc1ccc(OC)c(CNC(=O)CCN2C(=O)COc3ccccc32)c1	0.7	-2	-1.4	-10	-3	13%[38.3 µM]
Cn1cccc1Cc1nnc(SCC(=O)Nc2ccc(F)cc2)n1CCc1ccccc1	1.2	-15	-2.5	-4	-17	-0.2%
CCOC(=O)c1ccc(NC(=O)CSc2nc3ncccc3[nH]2)cc1	0.7	-3	6.5	-18	2	-2.0%
O=C(COC(=O)/C=C/c1ccccc1)NC1CCS(=O)(=O)C1 (stereo unspecified)	-0.4	0	-3.6	-5	.	1.4%
